mut p53 SMM: binders of human mutant p53, primary screen, biochemical, small molecule microarray, anti-GST fluorescence. mutant tumor protein p53 (GST-tagged), Homo sapiens. calls only. small molecule microarray binding. AID 624136, 2012. actives 0.4% (n = 17,000);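 active = compounds whose four printed spots each glow above background more than chance allows, each with a p-value under 7%; compounds were printed on slides so no solution concentration is given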;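 note: about 2 pmol printed per array spot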
c-Myc SMM: binders of human c-Myc, primary screen, biochemical, small molecule microarray, anti-His fluorescence; calls only; actives 1.5% (n = 17,000); Myc proto-oncogene protein (Homo sapiens), P01106; His-c-Myc binding; AID 624141, 2012;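 active = spot fluorescence over background with P-value below 7% in all four replicate spots, showing protein binding; compounds were printed on slides so no solution concentration is given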;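 note: score is binary with 100 for all four spots passing and 0 otherwise; about 2 pmol printed per array spot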
Target sequence (P01106 whole entry, looked up): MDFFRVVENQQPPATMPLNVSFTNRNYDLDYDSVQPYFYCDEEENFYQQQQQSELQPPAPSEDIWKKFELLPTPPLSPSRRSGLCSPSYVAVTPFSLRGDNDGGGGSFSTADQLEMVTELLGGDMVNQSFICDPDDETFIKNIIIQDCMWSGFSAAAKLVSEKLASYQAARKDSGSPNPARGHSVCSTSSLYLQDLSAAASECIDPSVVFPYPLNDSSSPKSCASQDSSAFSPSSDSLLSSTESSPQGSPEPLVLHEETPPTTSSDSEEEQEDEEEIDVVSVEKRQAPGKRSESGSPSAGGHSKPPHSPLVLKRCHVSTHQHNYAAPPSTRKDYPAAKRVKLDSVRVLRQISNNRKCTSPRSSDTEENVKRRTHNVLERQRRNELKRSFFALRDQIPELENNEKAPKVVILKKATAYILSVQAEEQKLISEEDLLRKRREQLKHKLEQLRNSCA
ID4 binder: binders of human ID4 protein, primary screen, biochemical, small molecule microarray, single point | Flag-ID4 binding, fluorescence F/B | calls only | AID 624137, 2012 | actives 1.2% (n = 31,000);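 active = spot signal over background at p below 0.07 in all four prints; compounds were printed on slides so no solution concentration is given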;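 note: a binder raises fluorescence above local background on the spot; about 2 pmol printed per array spot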
Target sequence (P47928 whole entry, looked up): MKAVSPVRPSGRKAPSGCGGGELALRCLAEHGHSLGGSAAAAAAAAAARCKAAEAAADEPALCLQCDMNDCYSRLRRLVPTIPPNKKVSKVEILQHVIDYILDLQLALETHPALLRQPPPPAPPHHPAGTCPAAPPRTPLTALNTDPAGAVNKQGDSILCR
STAT3 binder: STAT3 binders, primary screen, biochemical, small molecule microarray, single point, set 2; Signal transducer and activator of transcription 3 (Homo sapiens), P40763; His-STAT3 binding, anti-His fluorescence; calls only; actives 0.2% (n = 17,000); AID 624138, 2012;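 active = compounds whose four printed spots each show fluorescence over background unusually high for their array block, chance value under 7%; compounds were printed on slides so no solution concentration is given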;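 note: about 2 pmol printed per array spot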
Calls only. The list is partial. The share of hits here may be higher or lower than overall.

For C[C@H](CO)N1C[C@H](C)[C@H](CN(C)C(=O)NC2CCCCC2)Oc2ccc(NC(=O)Nc3cccc4ccccc34)cc2CC1=O the results were mut p53 SMM inactive, c-Myc SMM inactive, ID4 binder inactive and STAT3 binder inactive.
Nc1nc(SCC(=O)c2ccc(-c3ccccc3)cc2)n[nH]1 was read as mut p53 SMM inactive, c-Myc SMM inactive, ID4 binder inactive and STAT3 binder inactive.
CC(C)NC(=O)Nc1cccc2c1O[C@H](CN(C)Cc1ccc(Oc3ccccc3)cc1)[C@@H](C)CN([C@@H](C)CO)C2=O was read as mut p53 SMM inactive, c-Myc SMM inactive, ID4 binder inactive and STAT3 binder inactive.
CCn1c(SCc2nc(-c3ccc(Br)cc3)no2)nnc1-c1c[nH]c2ccccc12 was read as mut p53 SMM inactive, c-Myc SMM inactive, ID4 binder inactive and STAT3 binder inactive.
For O=C1N(CCS(=O)(=O)c2ccccc2)c2ccccc2[C@H]2OC(c3ccc(OCCCO)cc3)=N[C@@]12CCS(=O)(=O)c1ccccc1 the results were mut p53 SMM inactive, c-Myc SMM inactive and STAT3 binder inactive.
Screening CNC[C@@H]1Oc2c(NS(=O)(=O)c3ccc(OC)cc3)cccc2C(=O)N([C@@H](C)CO)C[C@@H]1C returned mut p53 SMM inactive, c-Myc SMM inactive, ID4 binder inactive and STAT3 binder inactive.
`C[C@H](CO)N1C[C@H](C)[C@@H](CN(C)C(=O)Nc2ccc(F)cc2)Oc2ccc(NC(=O)c3ccncc3)cc2CC1=O` gave mut p53 SMM inactive, c-Myc SMM inactive, ID4 binder inactive and STAT3 binder inactive.
For O=C(c1ccccc1Oc1nnnn1-c1ccccc1)N1CCOCC1 the results were mut p53 SMM inactive, c-Myc SMM inactive, ID4 binder inactive and STAT3 binder inactive.
For C[C@@H]1CN([C@H](C)CO)C(=O)c2cc(NC(=O)CCC(F)(F)F)ccc2O[C@@H](C)CCCCO[C@H]1CN(C)C(=O)CCC(F)(F)F the results were mut p53 SMM inactive, c-Myc SMM active, ID4 binder inactive and STAT3 binder inactive.
For Cc1noc(C)c1S(=O)(=O)N(C)C[C@H]1Oc2c(cccc2N(C)C)C(=O)N([C@@H](C)CO)C[C@@H]1C the results were mut p53 SMM inactive, c-Myc SMM inactive, ID4 binder inactive and STAT3 binder inactive.
`Cc1ccc(S(=O)(=O)Nc2ccc3c(c2)C(=O)N([C@@H](C)CO)C[C@H](C)[C@H](CN(C)S(=O)(=O)c2ccc(F)cc2)O3)cc1` gave mut p53 SMM inactive, c-Myc SMM inactive and STAT3 binder inactive.
Screening Cc1noc(C)c1NC(=O)Nc1ccc2c(c1)CC(=O)N([C@@H](C)CO)C[C@@H](C)[C@@H](CN(C)C(=O)NC(C)C)O2 returned mut p53 SMM inactive, c-Myc SMM inactive, ID4 binder inactive and STAT3 binder inactive.
Screening C[C@@H]1CN([C@@H](C)CO)C(=O)c2cccc(NS(=O)(=O)c3cccs3)c2O[C@@H]1CN(C)C(=O)Nc1cccc2ccccc12 returned mut p53 SMM inactive, c-Myc SMM inactive, ID4 binder inactive and STAT3 binder inactive.
CC1CCC2(OC1)OC1CC3C4CC=C5C[C@@H](O)CC(O)[C@]5(C)C4CC[C@]3(C)C1C2C (stereo partly drawn) was read as mut p53 SMM inactive, c-Myc SMM inactive, ID4 binder inactive and STAT3 binder inactive.
Screening COc1ccc(CN(C)C[C@H]2Oc3ccc(NS(=O)(=O)c4ccc(C)cc4)cc3CC(=O)N([C@@H](C)CO)C[C@H]2C)cc1 returned mut p53 SMM inactive, c-Myc SMM inactive and STAT3 binder inactive.
`C[C@H](CO)N1C[C@H](C)[C@H](CN(C)C(=O)Nc2ccc3c(c2)OCO3)Oc2ncc(-c3ccccc3)cc2C1=O` gave mut p53 SMM inactive, c-Myc SMM inactive, ID4 binder inactive and STAT3 binder inactive.
Screening C[C@H]1CN([C@@H](C)CO)C(=O)c2cccc(NC(=O)Nc3ccccc3)c2O[C@@H]1CN(C)S(=O)(=O)c1ccc(F)cc1 returned mut p53 SMM inactive, c-Myc SMM inactive and STAT3 binder inactive.
Screening CC(C)=CCc1c(O)ccc2c(=O)c(-c3ccc(O)cc3)coc12 returned mut p53 SMM inactive, c-Myc SMM inactive and STAT3 binder inactive.
For O=c1oc(-c2ccc(C(F)(F)F)cc2)nn1Cc1cc(Cl)ccc1O the results were mut p53 SMM inactive, c-Myc SMM inactive, ID4 binder inactive and STAT3 binder inactive.
`C[C@@H]1CN([C@H](C)CO)C(=O)c2cccc(NS(C)(=O)=O)c2O[C@@H]1CN(C)Cc1ccc2c(c1)OCO2` gave mut p53 SMM inactive, c-Myc SMM inactive, ID4 binder inactive and STAT3 binder inactive.
`C[C@H](CO)N1C[C@H](C)[C@@H](CN(C)Cc2ccc(C(=O)O)cc2)Oc2c(NC(=O)C3CCOCC3)cccc2C1=O` gave mut p53 SMM inactive, c-Myc SMM inactive, ID4 binder inactive and STAT3 binder inactive.
Screening C/C=C/C=C/C(=O)N1CC[C@]23c4ccccc4N[C@H]4N(C)c5cccc6c5[C@]42CCN([C@H]6C2OC2(C)C)[C@H]13 (stereo partly drawn) returned mut p53 SMM inactive, c-Myc SMM inactive and STAT3 binder inactive.
Screening CC(C)NC(=O)N(C)C[C@@H]1OCCCC[C@H](C)Oc2ccc(NS(=O)(=O)c3cn(C)cn3)cc2C(=O)N([C@H](C)CO)C[C@@H]1C returned mut p53 SMM inactive, c-Myc SMM inactive, ID4 binder inactive and STAT3 binder inactive.
Screening O=C(CSc1nnnn1C1CCCCC1)Nc1ccccc1[N+](=O)[O-] returned mut p53 SMM inactive, c-Myc SMM inactive, ID4 binder inactive and STAT3 binder inactive.
COC(=O)[C@H](Cc1ccccc1)N1C(=O)O[C@H](Cc2ccccc2)[C@@H]1/C=C/C1CC1 was read as mut p53 SMM inactive, c-Myc SMM inactive, ID4 binder inactive and STAT3 binder inactive.
CCCCCCCCCC(O)CC(O)CC(O)CC1CC=CC(=O)O1 (stereo not drawn) was read as mut p53 SMM inactive, c-Myc SMM inactive and STAT3 binder inactive.
`C[C@H](CO)N1C[C@H](C)[C@H](CN(C)C(=O)Nc2ccccc2)Oc2ncc(-c3ccccc3)cc2C1=O` gave mut p53 SMM inactive, c-Myc SMM inactive, ID4 binder inactive and STAT3 binder inactive.
For C#Cc1ccc([C@H]2C=C(C(=O)Nc3ccccc3)O[C@@H](OCCCCO)C2)cc1 the results were mut p53 SMM inactive, c-Myc SMM inactive, ID4 binder inactive and STAT3 binder inactive.
For C[C@@H]1CCCCO[C@@H](CN(C)S(=O)(=O)c2cn(C)cn2)[C@@H](C)CN([C@H](C)CO)C(=O)c2cc(NS(=O)(=O)c3cn(C)cn3)ccc2O1 the results were mut p53 SMM inactive, c-Myc SMM inactive, ID4 binder inactive and STAT3 binder inactive.
C[C@H]1CN([C@@H](C)CO)C(=O)c2cccc(NS(C)(=O)=O)c2O[C@@H]1CN(C)Cc1ccc(Oc2ccccc2)cc1 was read as mut p53 SMM inactive, c-Myc SMM inactive, ID4 binder inactive and STAT3 binder inactive.
For C[C@H](CO)N1C[C@H](C)[C@H](CN(C)C)OCCCC[C@H](C)Oc2ccc(NS(=O)(=O)c3cccs3)cc2C1=O the results were mut p53 SMM inactive, c-Myc SMM inactive, ID4 binder inactive and STAT3 binder inactive.
For O=c1c(OC2OCC(O)C(O)C2O)c(-c2ccc(O)c(O)c2)oc2cc(O)cc(O)c12 (stereo not drawn) the results were mut p53 SMM inactive, c-Myc SMM inactive, ID4 binder inactive and STAT3 binder inactive.
`CCOC(=O)c1c(NC(=S)Nc2nc(C)cc(C)n2)sc(C)c1-c1ccccc1` gave mut p53 SMM inactive, c-Myc SMM inactive, ID4 binder inactive and STAT3 binder inactive.
Screening C[C@@H]1CN([C@H](C)CO)C(=O)c2cc(NC(=O)C3CC3)ccc2O[C@H]1CN(C)C(=O)Nc1ccc(F)cc1 returned mut p53 SMM inactive, c-Myc SMM inactive, ID4 binder inactive and STAT3 binder inactive.
`C/C=C1\C2C=C(C)CC1(N)c1ccc(=O)[nH]c1C2` (stereo not drawn) gave mut p53 SMM inactive, c-Myc SMM inactive, ID4 binder inactive and STAT3 binder inactive.
For Nc1c(S(=O)(=O)O)cc(Nc2cccc3ccccc23)c2c1C(=O)c1ccccc1C2=O the results were mut p53 SMM inactive, c-Myc SMM inactive, ID4 binder inactive and STAT3 binder inactive.
Screening Cc1noc(C)c1S(=O)(=O)N(C)C[C@H]1Oc2ccc(NC(=O)Nc3cccc4ccccc34)cc2CC(=O)N([C@@H](C)CO)C[C@H]1C returned mut p53 SMM inactive, c-Myc SMM inactive, ID4 binder inactive and STAT3 binder inactive.
Screening Cc1noc(C)c1NC(=O)Nc1ccc2c(c1)CC(=O)N([C@@H](C)CO)C[C@@H](C)[C@@H](CN(C)S(=O)(=O)c1cn(C)cn1)O2 returned mut p53 SMM inactive, c-Myc SMM inactive, ID4 binder inactive and STAT3 binder inactive.
`CC(C)NC(=O)N(C)C[C@@H]1OCCCC[C@@H](C)Oc2ccc(NC(=O)c3ccncc3)cc2C(=O)N([C@H](C)CO)C[C@H]1C` gave mut p53 SMM inactive, c-Myc SMM active, ID4 binder inactive and STAT3 binder inactive.
Cc1ccc(NC(=O)CCC(=O)O)cc1F was read as mut p53 SMM inactive, c-Myc SMM inactive, ID4 binder inactive and STAT3 binder inactive.
`C[C@H](CO)N1C[C@H](C)[C@@H](CN(C)Cc2ccc3c(c2)OCO3)Oc2ccc(NC(=O)CCC(F)(F)F)cc2CC1=O` gave mut p53 SMM inactive, c-Myc SMM inactive, ID4 binder inactive and STAT3 binder inactive.
Screening COC(=O)c1ccc(Cl)c(NC(=O)CN2CCN(C)CC2)c1 returned mut p53 SMM inactive, c-Myc SMM inactive, ID4 binder inactive and STAT3 binder inactive.
For Cc1cc(C)c(NC(=O)COc2ccccc2C(=O)Nc2ccc3c(c2)oc2ccccc23)c(C)c1 the results were mut p53 SMM inactive, c-Myc SMM inactive, ID4 binder inactive and STAT3 binder inactive.
For CC(C)NC(=O)N(C)C[C@H]1OCCCC[C@@H](C)Oc2ccc(NC(=O)CCC(F)(F)F)cc2C(=O)N([C@@H](C)CO)C[C@H]1C the results were mut p53 SMM inactive, c-Myc SMM inactive, ID4 binder inactive and STAT3 binder inactive.
For COC(=O)[C@]1(CCC(=O)OC(C)(C)C)N=C(c2ccc(OCCCO)cc2)O[C@@H]1c1ccccc1 the results were mut p53 SMM inactive, c-Myc SMM inactive, ID4 binder inactive and STAT3 binder inactive.
For C[C@H]1CN([C@@H](C)CO)C(=O)c2cc(N(C)C)ccc2O[C@@H]1CN(C)Cc1ccc2c(c1)OCO2 the results were mut p53 SMM inactive, c-Myc SMM inactive, ID4 binder inactive and STAT3 binder inactive.
Screening O=C(CSc1ncccn1)Nc1ccc(Cl)cc1 returned mut p53 SMM inactive, c-Myc SMM inactive, ID4 binder inactive and STAT3 binder inactive.
`COc1ccc(S(=O)(=O)Nc2ccc3c(c2)CC(=O)N([C@@H](C)CO)C[C@H](C)[C@H](CN(C)Cc2ccc(C(F)(F)F)cc2)O3)cc1` gave mut p53 SMM inactive, c-Myc SMM inactive, ID4 binder inactive and STAT3 binder inactive.
C[C@@H]1CCCCO[C@@H](CN(C)Cc2ccccc2)[C@@H](C)CN([C@H](C)CO)C(=O)c2cc(NS(=O)(=O)c3cccs3)ccc2O1 was read as mut p53 SMM inactive, c-Myc SMM inactive, ID4 binder inactive and STAT3 binder inactive.
For Cc1noc(C)c1S(=O)(=O)Nc1ccc2c(c1)CC(=O)N([C@H](C)CO)C[C@H](C)[C@@H](CN(C)S(=O)(=O)c1ccccc1)O2 the results were mut p53 SMM inactive, c-Myc SMM inactive, ID4 binder inactive and STAT3 binder inactive.
`C=C[C@]1(C)C=C2CCC3C(C)(CCC[C@@]3(C)C(=O)O)C2CC1` (stereo partly drawn) gave mut p53 SMM inactive, c-Myc SMM inactive, ID4 binder inactive and STAT3 binder inactive.
For C[C@@H]1CN([C@H](C)CO)C(=O)c2cc(NS(=O)(=O)c3cn(C)cn3)ccc2O[C@@H](C)CCCCO[C@H]1CN(C)S(=O)(=O)c1cn(C)cn1 the results were mut p53 SMM inactive, c-Myc SMM inactive, ID4 binder inactive and STAT3 binder inactive.
`CNC[C@@H]1Oc2ccc(NC(=O)Cn3cnnn3)cc2CC(=O)N([C@H](C)CO)C[C@H]1C` gave mut p53 SMM inactive, c-Myc SMM inactive, ID4 binder inactive and STAT3 binder inactive.

Ordered by number of heavy atoms (smallest number first): part of the list above
Screening COC(=O)c1ccc(Cl)c(NC(=O)CN2CCN(C)CC2)c1 returned mut p53 SMM inactive, c-Myc SMM inactive, ID4 binder inactive and STAT3 binder inactive.
For COC(=O)[C@]1(CCC(=O)OC(C)(C)C)N=C(c2ccc(OCCCO)cc2)O[C@@H]1c1ccccc1 the results were mut p53 SMM inactive, c-Myc SMM inactive, ID4 binder inactive and STAT3 binder inactive.
For Cc1noc(C)c1S(=O)(=O)Nc1ccc2c(c1)CC(=O)N([C@H](C)CO)C[C@H](C)[C@@H](CN(C)S(=O)(=O)c1ccccc1)O2 the results were mut p53 SMM inactive, c-Myc SMM inactive, ID4 binder inactive and STAT3 binder inactive.
For CC(C)NC(=O)N(C)C[C@H]1OCCCC[C@@H](C)Oc2ccc(NC(=O)CCC(F)(F)F)cc2C(=O)N([C@@H](C)CO)C[C@H]1C the results were mut p53 SMM inactive, c-Myc SMM inactive, ID4 binder inactive and STAT3 binder inactive.
